Bioassay records deposited in PubChem BioAssay by several laboratories.
PrP 5UTR inh = suppresses PrP 5' UTR mRNA reporter expression. cell-based PrP 5' UTR mRNA reporter, plate reader. inhibition, % (test concentration not listed). 340,000 compounds, 0.35% hits. AID 488862;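 active means every replicate at 50% or more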;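 further: 0 = median of the neutral control wells; tested in H4 reporter cells; numbers are from one replicate; inactives centre near -14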
Sa RN4220 lethal = S. aureus RN4220 growth inhibition. AID 1259311. inhibition, % (concentration not given with the values). 330,000 compounds, 0.33% hits. OD600, 16 h;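 active means z-score of -3 or lower and OD600 up to 0.18 on both plates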;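 further: plate controls were untreated cells for no effect and reference antibiotic for full effect; stock transfer was 100 nL into about 80 µL; one replicate is shown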
Sa ugtP lethal = compounds lethal to S. aureus RN4220 ugtP deletion mutant. OD600 growth, 16 h; some inactives read as strong as hits. growth inhibition, % (no concentration beside the values). 330,000 compounds, 0.54% hits;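 active means z-score under -3 and OD600 up to 0.15 on both plates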;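 further: plate controls were untreated wells for no effect and antibiotic for full effect; wells of about 80 µL received 100 nL stock; the first replicate is given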
Mtb hypoxia rep = inhibitors of hypoxia-regulated fluorescent reporter in Mycobacterium tuberculosis; M. tuberculosis hypoxia-regulated fluorescent reporter, fluorescence; fluorescence inhibition, % (test concentration not listed); 300,000 compounds, 0.1% hits;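 active means 35 to 45% if threefold the growth effect, above 45% if 1.5-fold the growth effect; inactive means the rest, general growth blockers included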;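 further: wells of about 50 µL received 100 nL stock; 0% = vehicle wells and 100% = reference inhibitor wells; whole bacteria with a GFP reporter of the hypoxia response; strong numbers were not always called active; many hits fall short of the cut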
BJeLR lethal = kills HRASV12-expressing BJeLR cells; BJeLR (HRASV12) viability, CellTiter-Glo ATP luminescence, 48 h; reference of the scale not given here; inhibition, % (concentration not given with the values); 300,000 compounds, 0.17% hits;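 active means replicate mean above 50%; inconclusive means above 50% but judged a plate artefact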;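 further: 50 nL library stock added to about 25 µL; numbers are from one replicate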
Autofluor counter = counter-screen for toxin protease inhibitors: compound fluorescence. 360,000 compounds, 3.1% hits. AID 624483. compound autofluorescence counterscreen, microsphere flow cytometry; stronger effect = higher value. fluorescence intensity (concentration not given with the values);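 active means at least 3 SD above the mean of all compounds, about 16000 in these data; inconclusive means too few beads counted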;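 further: 100 nL of 1 mM stock went into each well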
Mtb hypoxia rep growth = also measured in Mtb hypoxia rep; calls as there; growth inhibition, %; measured here: M. tuberculosis growth (absorbance);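 0% = vehicle and 100% = reference antibiotic; read after six days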
The depositor's hits bear a star; ? = inconclusive; . = no result given.

SMILES | PrP 5UTR inh | Sa RN4220 lethal | Sa ugtP lethal | Mtb hypoxia rep | Mtb hypoxia rep growth | BJeLR lethal | Autofluor counter
CC(C)NC(=O)c1onc(CSc2cccc(Cl)c2)c1C(=O)O | -29 | 9.2 | 5 | 3 | 11 | 3 | 3516
CN1CCc2c(sc3c2C(=O)NC(c2ccc(-c4ccc(Cl)cc4)o2)N3)C1 (stereo not drawn) | -35 | 1.4 | 3 | 15 | 10 | -6 | 3761
NC(=O)Cn1cc(C=NNC(=O)c2ccc(Cn3cc(Cl)cn3)o2)c(-c2ccccc2)n1 | . | 2.3 | 7 | 4 | 10 | . | .
COc1ccc(C(C)=NNC(=O)c2ccccc2N)cc1 | . | 0.1 | 7 | -5 | -3 | . | .
O=C(c1ccccc1)N1N=C(C(F)(F)F)CC1(O)c1ccccc1 (stereo not drawn) | 0 | 14 | 8 | 0 | -4 | -15 | 3136
Cc1c(-n2c(SCC(=O)C(C)(C)C)nc3ccccc3c2=O)c(=O)n(-c2ccccc2)n1C | -14 | 6.4 | 2 | -1 | 7 | -15 | 3164
CCCc1cc(=O)[nH]c(SCC(=O)N2CCC(C(=O)OCC)CC2)n1 | -2 | 1.0 | 9 | . | . | 7 | 4906
COc1ccc(Br)cc1C=NNc1ccccn1 | . | 2.2 | 4 | 1 | 1 | . | .
CCCCN1C(Nc2ccccc2)=NCC1Cc1ccccc1 (stereo not drawn) | . | 0.1 | 5 | 9 | 14 | . | .
CCOc1ccccc1NC(C)C(=O)NC(=O)NC1CCCCC1 (stereo not drawn) | -25 | -0.7 | 0 | -3 | 5 | . | 3652
CCN1CCN(CC(=O)N2CCCC(C(=O)c3ccc(Oc4ccccc4)cc3)C2)CC1 (stereo not drawn) | -92 | 4.7 | -3 | 10 | 5 | 2 | 5260
CCCC1=NN2C(=N)/C(=C\c3cc(C)n(-c4cccc(C)c4)c3C)C(=O)N=C2S1 | -2 | 2.9 | 5 | 9 | 1 | 2 | 2193
O=C(CN1CCN(S(=O)(=O)c2ccc(F)cc2)CC1)NC1CC1 | -20 | 5.2 | -1 | -1 | -1 | 9 | 5155
Cc1cc(C)c2nc(NC(=O)[C@@H](NC(=O)c3cccc(S(=O)(=O)N4CCOCC4)c3)C(C)C)sc2c1 | -26 | 0.7 | -12 | 6 | 4 | -8 | 11270
COc1cc(C2c3[nH]c4ccccc4c3C[C@H]3C(=O)N(C4CC4)CC(=O)N23)ccc1OC(C)C (stereo partly drawn) | -14 | 3.1 | 14 | 3 | 11 | -8 | 3719
COc1ccccc1C(=O)NNC(=O)c1ccc(NC(=O)C(C)C)cc1 | 2 | 4.4 | 11 | 12 | 12 | -1 | 3997
O=C(CSc1nnc(-c2cccc(Br)c2)o1)N1CCNC1=O | -44 | 8.0 | 4 | -3 | 0 | . | 3397
CC(C)CN(C(=O)CN(C)CC(=O)Nc1ccc(Cl)c(C(F)(F)F)c1)c1c(N)n(CC(C)C)c(=O)[nH]c1=O | -1 | -1.6 | -1 | 4 | 7 | . | 3799
O=C(Nc1nc(-c2cccnc2)cs1)c1cccc([N+](=O)[O-])c1 | 9 | 11 | 2 | 3 | 6 | 13 | 4501
O=C1CC(c2ccccc2)n2nc(NC(=O)c3cccs3)nc2N1 (stereo not drawn) | -22 | 1.7 | 3 | . | . | -6 | 4821
COCCn1c(C)cc(C(=O)COC(=O)c2c(C)nn(Cc3ccccc3)c2C)c1C | -9 | 1.0 | 6 | . | . | -1 | 3844
O=C(c1cc(-c2ccc(Cl)s2)nc2ccccc12)N1CCCC1 | -18 | -1.5 | 1 | 3 | 6 | 0 | 5761
COc1ccc(N2C(=O)C(Cl)=C(Nc3ccccc3O)C2=O)cc1 | -18 | -15 | -6 | 26 | 24 | -8 | 2873
CCOc1cc(/C=N/NC(=O)C(=O)NCc2cccnc2)ccc1O | -21 | . | . | . | . | 0 | 2059
COC(=O)C1=C(c2ccc(OC(F)(F)F)cc2)CC2CCC1N2C(=O)NC1CCCCC1 (stereo not drawn) | . | -4.0 | 3 | -7 | 8 | . | .

Next section.
SMILES | PrP 5UTR inh | Sa RN4220 lethal | Sa ugtP lethal | Mtb hypoxia rep | Mtb hypoxia rep growth | BJeLR lethal | Autofluor counter
O=C1C2C(c3ccccc3)=NN(c3ccccc3)C2C(=O)N1c1ccccc1 (stereo not drawn) | -2 | -4.3 | -4 | 16 | 17 | 1 | 2393
O=c1c(Cl)c(NS(=O)(=O)c2ccccc2)cnn1-c1ccccc1 | -10 | -2.2 | -4 | 12 | 11 | -1 | 4672
O=C(c1ccc(Cl)s1)N1CCCC1 | -13 | 2.3 | -1 | 18 | 24 | -15 | 24368*
Nc1nc(CN2CCN(Cc3ccccc3)CC2)nc(Nc2ccc3c(c2)OCCO3)n1 | -32 | 3.1 | -3 | -12 | 9 | 17 | 4413
COc1ccc(Nc2nnc(SCC(=O)Nc3cc(C)on3)s2)cc1 | -32 | -7.7 | -9 | -3 | 8 | . | 2452
C=CCN(C(=O)CC(NC(C)=O)c1ccccc1)c1nc(-c2ccc(S(C)(=O)=O)cc2)cs1 (stereo not drawn) | -34 | . | . | . | . | -11 | 4028
COc1ccc(S(=O)(=O)N(C)CC2Oc3ccc(NS(=O)(=O)c4cccs4)cc3C(=O)N(C(C)CO)CC2C)cc1 (stereo not drawn) | . | 2.7 | 2 | 4 | 9 | . | .
O=C(Nc1ccc(Cl)c(Cl)c1)C1CC(=O)N(c2ccc(Br)cc2)C1 (stereo not drawn) | -3 | 32 | 7 | 1 | -10 | 5 | 9426
Cc1cccc(CSc2nnc([C@@H]3CCCN3)o2)c1 | -24 | 2.6 | 2 | 11 | -2 | -1 | 4181
CN(C)c1ccc(C(=O)OCC(=O)NCCCc2ccccc2)cc1 | -26 | -2.4 | 0 | 3 | -2 | -7 | 2939
COc1ccc2oc(C(=O)Nc3nnc(C)s3)c(C)c2c1 | -3 | 0.1 | -2 | -2 | 9 | . | 3708
O=C1Nc2ccccc2C1Cc1ccc(OC(F)(F)F)cc1 (stereo not drawn) | -7 | 2.1 | 2 | 15 | -6 | 0 | 3237
Cc1ccccc1CC1(CO)CCCN(C(=O)c2ccccc2N(C)C)C1 (stereo not drawn) | -22 | 8.4 | -2 | 6 | -12 | . | 2238
CC(C)(C)[C@H]1C=C(C(=O)O)O[C@@H](OCCCCO)C1 | -16 | . | . | . | . | -8 | 3962
COc1cc(C(=O)NC(=S)Nc2ccc3c(c2)OCO3)cc(OC)c1OC | -21 | 5.4 | 21 | 16 | 8 | -5 | 5393
O=C(CNC1CCCCCC1)c1cccs1 | -22 | 5.6 | 9 | 16 | 4 | -12 | 2153
CCN(C(=O)c1cccs1)c1nc(-c2ccc(OC)cc2)cs1 | -30 | -3.8 | 47 | 0 | 7 | 7 | 4143
O=C1N=C(N2CCOCC2)S/C1=C\c1cccs1 | 31 | . | . | . | . | 1 | 3255
COc1cc(OC)cc(C(=O)Nc2sc3c(c2C(N)=O)CCC3)c1 | -33 | -7.5 | -13 | 2 | 4 | -2 | 3606
CN(C(=O)c1cccc(S(=O)(=O)N2CCCCC2)c1)C1CCS(=O)(=O)C1 (stereo not drawn) | -8 | 1.9 | 4 | 2 | -3 | 8 | 4480
O=C1c2ccccc2CCC12N=NCC2c1ccc(Br)cc1 (stereo not drawn) | -71 | 1.6 | 26 | 15 | 8 | 4 | 4453
COc1ccc(C)cc1N(CC(=O)N1CCCCCC1)S(C)(=O)=O | -15 | 3.6 | 11 | 9 | -1 | 4 | 5165
COc1ccc(N(C(=O)Cc2cccs2)C2C=CS(=O)(=O)C2)cc1 (stereo not drawn) | -8 | 1.3 | -7 | -3 | -6 | -16 | 4091
C/C(=N\Nc1ncnc2sc(C)c(C)c12)c1ccccn1 | 18 | . | . | . | . | 80* | 9536
Clc1cccc(OCCN2CCNCC2)c1 | -5 | 2.1 | -2 | 3 | 8 | -5 | 2486

6 entries from above, ordered by formula weight, largest number first.
SMILES | PrP 5UTR inh | Sa RN4220 lethal | Sa ugtP lethal | Mtb hypoxia rep | Mtb hypoxia rep growth | BJeLR lethal | Autofluor counter
Cc1cc(C)c2nc(NC(=O)[C@@H](NC(=O)c3cccc(S(=O)(=O)N4CCOCC4)c3)C(C)C)sc2c1 | -26 | 0.7 | -12 | 6 | 4 | -8 | 11270
COc1cc(C2c3[nH]c4ccccc4c3C[C@H]3C(=O)N(C4CC4)CC(=O)N23)ccc1OC(C)C (stereo partly drawn) | -14 | 3.1 | 14 | 3 | 11 | -8 | 3719
CCCC1=NN2C(=N)/C(=C\c3cc(C)n(-c4cccc(C)c4)c3C)C(=O)N=C2S1 | -2 | 2.9 | 5 | 9 | 1 | 2 | 2193
COc1ccc(N(C(=O)Cc2cccs2)C2C=CS(=O)(=O)C2)cc1 (stereo not drawn) | -8 | 1.3 | -7 | -3 | -6 | -16 | 4091
O=C(CNC1CCCCCC1)c1cccs1 | -22 | 5.6 | 9 | 16 | 4 | -12 | 2153
O=C(c1ccc(Cl)s1)N1CCCC1 | -13 | 2.3 | -1 | 18 | 24 | -15 | 24368*

More structures
SMILES | PrP 5UTR inh | Sa RN4220 lethal | Sa ugtP lethal | Mtb hypoxia rep | Mtb hypoxia rep growth | BJeLR lethal | Autofluor counter
Cc1cc(C)n(CC(O)COCc2ccco2)n1 (stereo not drawn) | -6 | 3.9 | 1 | 5 | 5 | 7 | 23131*
COc1ccccc1CNC(=O)C1CCCN(S(=O)(=O)c2cccs2)C1 (stereo not drawn) | -16 | -0.3 | 13 | 8 | 9 | -9 | 3292
O=C1CCN(S(=O)(=O)c2ccc(Br)cc2)CCN1 | -13 | 7.4 | 6 | 7 | 4 | 17 | 4296
CCOC(=O)C(=Cc1cn(C)c2ccc(S(=O)(=O)N(C)C)cc12)C(=O)OCC | -9 | 6.8 | 7 | 0 | -3 | 5 | 3163
CCOC(=O)c1ccc(NC2c3ccccc3C(=O)N2c2ccccn2)cc1 (stereo not drawn) | -11 | -8.1 | -7 | -1 | 12 | -2 | 4540
COc1ccc(C(C)=O)cc1COC(=O)c1ccc(OCc2c(C)noc2C)cc1 | -9 | -1.4 | -6 | . | . | 3 | 4494
O=S(=O)(Nc1cccc2cccnc12)c1ccccc1 | -6 | . | . | . | . | 74* | 5099
CCCCCOC(=O)NCC(O)c1ccccc1 (stereo not drawn) | -42 | 5.6 | 6 | 15 | 11 | -4 | 15692
COc1cccc(-c2coc3c(C)c4oc(=O)c(CCC(=O)O)c(C)c4cc23)c1 | -4 | 100* | 100* | 6 | 5 | -9 | 3088
N#Cc1c(-c2ccccc2Cl)cc(-c2ccccc2)nc1Br | 13 | 1.7 | 10 | 2 | 6 | 12 | 3198
O=C(NCC1CCCN1S(=O)(=O)c1cccs1)C(=O)Nc1ccc(F)cc1 (stereo not drawn) | -1 | 2.8 | 7 | 6 | 6 | 7 | 6855
COc1cccc(CCc2nnc(CCC(=O)NCCc3cccc(C)n3)o2)c1 | -19 | 3.0 | 2 | 8 | -1 | 9 | 4534
CN(C)C(C(=O)NC1CCCCC1)c1ccc(Cl)cc1 (stereo not drawn) | -2 | -0.5 | -3 | . | . | 7 | 3997
Cc1cccc(C(=O)NCC(=O)N2CCN(S(=O)(=O)c3cc(C)ccc3C)CC2)c1 | 7 | -3.4 | 7 | -2 | 1 | -2 | ?
O=c1cnn(-c2ccccc2)c(-c2ccccc2)c1 | -26 | 1.4 | 5 | 3 | -1 | 4 | 10948
O=C(NCCC1=CCCCC1)C1CCN(C(=O)c2ccc(Br)cc2)CC1 | -10 | 0.2 | 2 | 14 | 2 | 5 | 2001
CN(C)C(/C=C/Nc1cccc([N+](=O)[O-])c1)=C(C#N)C#N | -38 | . | . | . | . | 8 | 4406
O=C(Nc1cc(S(=O)(=O)N2CCOCC2)ccc1OCC(F)(F)F)c1ccc(N2CCCC2=O)cc1 | -14 | 0.0 | -3 | 4 | 0 | 4 | ?
CC(/C=N/Nc1nc(C)cc(C)n1)=C\c1ccc(C(C)C)cc1 | -23 | . | . | . | . | 1 | 2635
CCCCCC(=O)ON=C(C)c1ccn(S(=O)(=O)c2ccccc2)c1 | . | -1.9 | 14 | 12 | 10 | . | .
O=C(Cc1ccccc1)Nc1c[nH]c(=O)[nH]c1=O | -10 | 2.2 | 5 | 2 | 5 | -7 | 10686
Cc1cc(N/N=C/c2ccccc2O)c2ccccc2n1 | -9 | . | . | . | . | -2 | 3759
O=S(=O)(NCC1CCCO1)c1ccc(S(=O)(=O)N(Cc2ccccn2)C2CC2)cc1 (stereo not drawn) | -22 | 1.1 | 7 | -3 | 8 | -5 | 2007
CCOC(=O)N1CCN(C(=S)NC(=O)/C=C/c2ccc(C)cc2)CC1 | -12 | 2.3 | 4 | 3 | -7 | 4 | 3903
